# Compound activity: PubChem BioAssay, several laboratories
# Mtb betalactam = beta-lactam sensitization of Mtb H37Rv, H37Rv. M. tuberculosis H37Rv growth with meropenem, percent inhibition; hits of this screen are not shown here. inhibition, % at 25 µM. 330,000 compounds, 0.27% hits;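 active = about 74% or more and at least 40 points above the plate without the antibiotic, then above 30% in a dose series; inconclusive = first-round hits that could not be retested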;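 note: growth measured after seven days incubation then overnight dye step; 0% = bacteria only wells and 100% = bacteria with antibiotic; twin plates without the antibiotic show which effects depend on it; some results filed as inactive read as strong as hits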
# RecA splice inh = Mtb RecA intein splicing inhibitors, primary screen, biochemical, fluorescence, HTS; Protein RecA (Mycobacterium tuberculosis (strain ATCC 25618 / H37Rv)), P9WHJ3; cell-free RecA intein splicing; inhibition, %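 (about 9 µM by stock and volumes)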; 290,000 compounds, 0.75% hits; AID 2221, 2009; in the data active = inhibition above about 30%; inconclusive = no clear call, values can overlap the other calls;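 note: 0% = vehicle wells and 100% = reference inhibitor control wells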
# Target sequence (P9WHJ3 whole entry, looked up, canonical isoform): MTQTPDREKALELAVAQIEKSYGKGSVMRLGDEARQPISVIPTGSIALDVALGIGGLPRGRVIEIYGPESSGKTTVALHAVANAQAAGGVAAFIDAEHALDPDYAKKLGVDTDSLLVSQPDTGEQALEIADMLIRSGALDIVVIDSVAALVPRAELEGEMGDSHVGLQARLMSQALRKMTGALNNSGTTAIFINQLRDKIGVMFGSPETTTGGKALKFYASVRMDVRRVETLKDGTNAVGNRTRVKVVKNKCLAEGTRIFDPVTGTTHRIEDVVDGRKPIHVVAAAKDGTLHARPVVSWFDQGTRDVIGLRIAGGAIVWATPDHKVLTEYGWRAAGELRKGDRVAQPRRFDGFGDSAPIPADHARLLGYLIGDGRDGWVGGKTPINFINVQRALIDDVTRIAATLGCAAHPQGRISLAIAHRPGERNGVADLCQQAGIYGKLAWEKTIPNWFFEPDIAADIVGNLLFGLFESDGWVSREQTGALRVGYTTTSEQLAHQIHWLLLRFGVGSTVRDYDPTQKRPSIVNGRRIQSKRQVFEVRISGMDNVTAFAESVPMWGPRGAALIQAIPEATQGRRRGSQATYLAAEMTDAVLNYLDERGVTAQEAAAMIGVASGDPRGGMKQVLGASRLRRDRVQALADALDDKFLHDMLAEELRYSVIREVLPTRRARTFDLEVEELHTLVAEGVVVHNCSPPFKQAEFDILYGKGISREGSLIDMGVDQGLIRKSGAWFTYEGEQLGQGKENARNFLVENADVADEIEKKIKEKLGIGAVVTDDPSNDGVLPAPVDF
# Mtb growth = M. tuberculosis H37Rv growth inhibitors, H37Rv strain (AID 1626); 220,000 compounds, 0.95% hits; M. tuberculosis H37Rv growth inhibition; higher % means a stronger effect; inhibition, % at 10 µM, or IC50 in µM where a hit was titrated;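 active = confirmed in a dose series; inconclusive = inhibition above 80% but not taken into the dose series; inactive = below 80% or under 30% at every dose of the series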;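 note: bacteria incubated seven days before Alamar blue readout; 0% = bacteria only wells and 100% = bacteria with antibiotic wells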
# YopH inh = YopH tyrosine phosphatase inhibitors, primary screen, biochemical, fluorescence Ex485/Em525. YopH tyrosine phosphatase [Yersinia enterocolitica]. inhibition, %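 (about 10 µM by stock and volumes)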. 140,000 compounds, 0.16% hits. AID 898, 2007;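 active = inhibition of 50% or more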;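 note: controls were vehicle for no effect and minimum signal wells for full effect; inactives centre near -20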
# Arbovirus inh = antivirals against arbovirus infection, primary screen, cell-based, full library, 10K replicate subset. arbovirus infection cell-based antiviral screen. inhibition, % at 10 µM. 200,000 compounds, 0.37% hits. AID 1251, 2008;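 active = inhibition from about 30%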;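 note: bluetongue infection of BSR cells; cell survival read as ATP light after 72 h; 0% = infected wells without compound and 100% = uninfected wells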
# Starred values were filed as active, the others as inactive; ? = inconclusive; . = no result given.
# The first 2 records as a preview:
# Second line of a record – Mtb growth, RecA splice inh, YopH inh, Arbovirus inh, Mtb betalactam
CS(=O)(=O)N1CCN(c2ccccc2NC(=O)c2ccc(Br)o2)CC1
    12%, 3.1, 2, -2, 6
CC(=O)n1nc(-c2ccccc2)nc1NCc1ccc(N(C)C)cc1
    -1%, 0.5, ., -2, 0

# Main list, repeating the preview:
# Second line of a record – Mtb growth, RecA splice inh, YopH inh, Arbovirus inh, Mtb betalactam
CS(=O)(=O)N1CCN(c2ccccc2NC(=O)c2ccc(Br)o2)CC1
    12%, 3.1, 2, -2, 6
CC(=O)n1nc(-c2ccccc2)nc1NCc1ccc(N(C)C)cc1
    -1%, 0.5, ., -2, 0
O=C1c2ccccc2-c2onc3c(Oc4ccccc4)cc(O)c1c23
    ., ., 0, -17, .
CC(C)(C)C(=O)Nc1ccc2c(c1)-c1cc(NC(=O)C(C)(C)C)ccc1C2
    10%, 0.0, -47, 0, 4
COc1ccc(S(=O)(=O)c2c(O)c3ccc(C(=O)Nc4ccccc4)cc3[nH]c2=O)cc1
    ., -3.0, ., ., -5
CC(=O)C12CCCCC1CC1C3CC(C)C4(O)CC(=O)CCC4(C)C3CCC12C (stereo not drawn)
    ., 1.0, ., ., -1
Cc1cc(Br)ccc1OCC(=O)NC1CCCC1
    ., 2.7, ., ., ?
COC(=O)CCSCC(=O)N1N=C(c2ccc(Br)cc2)CC1c1cccc(OC)c1OC (stereo not drawn)
    4%, ., ., 9, 7
O=C(CSc1ncccn1)NCc1ccccc1Cl
    10%, 1.4, -35, -4, -3
C=CCN(CC=C)C(=O)Cc1ccc(F)cc1
    -14%, 1.6, -15, 4, 0
COC(=O)C(C)(C)ONC(=O)Nc1ccccc1Cl
    0%, 1.4, ., 4, 1
COc1ccc(C(=O)CC2(CC(=O)c3ccc(OC)cc3)C(=O)N(C)C(=O)N(C)C2=O)cc1
    8%, -3.8, -6, 4, 12
Cc1onc(-c2c(Cl)cccc2Cl)c1C(=O)N1CCOCC1
    ., 0.0, ., ., 2
Cc1nn(-c2ccccc2)c(Cl)c1C(=O)Nc1nnc(C2CCCCC2)s1
    4%, 1.3, 7, -3, 100
COc1ccc(C(=O)NC(=S)Nc2ccc([N+](=O)[O-])cc2C)cc1OC
    1%, ., -45, 10, 5
O=C(Nc1ccccc1)C1=C[C@H](c2ccc(C(F)(F)F)cc2)C[C@H](OCc2ccc(CO)cc2)O1
    0%, 0.2, ., ., 65
COc1ccc(OC)c(NC(=O)C(=O)NNC(=O)c2cccs2)c1
    63%, -0.5, -20, 0, 65
COc1cccc(NC(=O)COC(=O)CCn2c(C)csc2=O)c1
    ., -4.2, ., ., -6
COc1cccc(C(=O)OCn2nnc3ccccc3c2=O)c1
    ?, -2.6, -19, 4, 100
O=C(CCC(=O)c1ccc(F)cc1)Nc1ccccc1Cl
    -3%, 0.4, -22, -4, 3
CC(N=C1NS(=O)(=O)c2ccccc21)C(=O)N1CCc2ccccc2C1 (stereo not drawn)
    -8%, 3.1, ., -2, -9
CCCNS(=O)(=O)c1ccc(NC(=O)Cc2cccs2)cc1
    6%, 3.3, -4, 5, 2
O=C(CSc1nnc(-c2cccc(S(=O)(=O)N3CCCC3)c2)n1-c1ccccc1)Nc1ccc(C(=O)O)cc1
    -6%, -0.8, ., 4, 3
CNC(=O)Nc1ccc2nc(C)sc2c1
    -4%, -3.2, ., 2, 2
COc1cc(C)c(C(C)C)cc1S(=O)(=O)N1CCN(C)CC1
    -17%, 2.0, -52, 10, 1
S=c1[nH]nc(CN2CCCC2)n1Cc1ccccc1
    2%, -1.2, ., 5, -12
Cc1ccc2c(c1)N(C(=O)CCC(=O)NCc1cccc(Cl)c1)CC(C)O2 (stereo not drawn)
    ., 2.6, ., ., 1
COc1ccc(OC)c(C2=NOC(C(=O)Nc3cccc(C(C)=O)c3)C2)c1 (stereo not drawn)
    1%, -0.3, -47, -2, -7
O=C(Cc1ccc(S(=O)(=O)N2CCCC2)s1)NC1CCCCCC1
    0%, 2.0, -15, -8, -1
O=C1C2CC=CCC2C(=O)N1CC1CCCO1 (stereo not drawn)
    1%, 5.4, 7, 9, -2

# Compound profiles, from the list above:
# Record of `O=C(CSc1nnc(-c2cccc(S(=O)(=O)N3CCCC3)c2)n1-c1ccccc1)Nc1ccc(C(=O)O)cc1` = Mtb growth: -6%; RecA splice inh: -0.8; YopH inh: .; Arbovirus inh: 4; Mtb betalactam: 3
# Record of `COc1cccc(C(=O)OCn2nnc3ccccc3c2=O)c1` = Mtb growth: ?; RecA splice inh: -2.6; YopH inh: -19; Arbovirus inh: 4; Mtb betalactam: 100
# Record of `Cc1onc(-c2c(Cl)cccc2Cl)c1C(=O)N1CCOCC1` = Mtb growth: .; RecA splice inh: 0.0; YopH inh: .; Arbovirus inh: .; Mtb betalactam: 2

# (listing goes on)
# Second line of a record – Mtb growth, RecA splice inh, YopH inh, Arbovirus inh, Mtb betalactam
Cc1ccc(C(=O)OCC(=O)Nc2sc3c(c2C#N)CCC3)cc1
    5%, -0.6, -54, 2, 1
O=C(NC1CC1)c1ccc2snnc2c1
    1%, -2.4, ., 3, -11
Cc1nnc(SCC(=O)NC(=O)NC2CCCC2)n1N
    -10%, ., -4, 17, -17
O=C(NNC(=O)c1cccc(-n2cccc2)c1)c1ccc(F)cc1
    ., 1.4, ., ., -5
Cn1c2ccc(F)cc2c2ncn(Cc3ccccn3)c(=O)c21
    -3%, -3.7, ., ., -6
CCN1C(=O)C(O)(CC(=O)c2ccc(-n3cccc3)cc2)c2ccccc21 (stereo not drawn)
    -1%, 2.6, -24, -7, 78
N#CC(C#N)=Cc1ccc(-c2ccc(S(=O)(=O)N=C(N)N)cc2)o1
    -7%, 3.8, -28, -5, 1
CC1CCN(C(=S)NC(=O)C2CCCCC2)CC1
    3%, 0.3, -39, 8, -3
CC1(c2nnc(-c3ccc(F)cc3)o2)CC(c2ccc(Cl)cc2)=NO1 (stereo not drawn)
    -7%, 5.5, ., ., -8
CCC(C)C(=O)OCC1(c2ccc(C)cc2OC(=O)C(C)C)CO1 (stereo not drawn)
    ?, ., ., ., 0
CCOC(=O)/C(=N/Nc1ccc(Cl)cc1)Sc1nnnn1-c1ccc(C)cc1
    -1%, -1.7, -8, -5, -1
FC(F)(F)Oc1ccc(Nc2nc3ccccc3o2)cc1
    ., 0.5, -22, 3, 7
COc1ccc(CCNC(=O)C(=O)NCC2OCCN2S(=O)(=O)c2ccccc2)cc1 (stereo not drawn)
    ., -1.8, ., ., -3
COC(=O)/C(=C\c1ccc2c(c1)c1ccccc1n2C)NC(=O)c1ccccc1
    16%, 1.6, -46, -1, 7
CCOc1cc(NC(=S)NCC2CCCO2)c(OCC)cc1NC(=O)c1ccc(C)cc1 (stereo not drawn)
    6%, -3.3, -17, -13, -3
CC1c2nc3ccccc3n2C(CC(=O)NCCCN2CCOCC2)C(=O)N1Cc1ccccc1 (stereo not drawn)
    1%, -0.3, ., -2, 2
Cn1c(CCc2ccccc2)n[nH]c1=S
    3%, -0.8, ., -4, -1
COc1ccc2c(c1)CCc1c(C(=O)N3CC4(C)CC3CC(C)(C)C4)noc1-2 (stereo not drawn)
    22%, 19, -14, -20, 95
C/C(=N\NC(=O)c1ccc([N+](=O)[O-])cc1)c1cc2ccccc2oc1=O
    -1%, 87*, -31, 15, 7
Cn1c(SCc2ccccc2C#N)nnc1-c1ccncc1
    ., 1.6, ., ., 8
O=C(OCCN1C(=O)c2ccccc2C1=O)c1cc(S(=O)(=O)N2CCOCC2)ccc1Cl
    4%, 2.3, -52, 4, -1
CC(=O)N1CCOc2ccc(S(=O)(=O)Nc3ncccc3C)cc21
    ., 0.2, ., ., 6
COc1ccc(C(c2nnnn2C2CCCC2)N2CCN(c3ccccc3)CC2)cc1 (stereo not drawn)
    -1%, 9.6, 17, -9, -1
Cn1c(N)c(C(C[N+](=O)[O-])c2ccccc2Cl)c(=O)n(C)c1=O (stereo not drawn)
    ., -2.9, ., ., 100
CCOC(=O)/C(C#N)=C/c1cc(C)n(-c2ccc(C)cc2)c1C
    10%, -2.6, -14, 1, 15
O=C(NCCNc1cc(Cl)ccc1[N+](=O)[O-])c1ccco1
    ., -1.3, -17, -5, 4
COC(=O)NNC(=O)c1ccc(C)c(Br)c1
    -18%, 0.3, -30, 2, 7
COCCN(C(=O)COC(=O)Cc1cccc2ccccc12)c1c(N)n(Cc2ccccc2)c(=O)[nH]c1=O
    ., -1.4, ., ., -7
O=C(CCl)Nc1cc(-c2ccccc2)nn1-c1ccccc1
    70%, 62*, -4, -22, 99
CCOC(=O)C1CCN(C(=O)CSc2cc(=O)n(C)c3ccccc23)CC1
    0%, 5.9, -18, 3, -8
CCOC(=O)N1CCN(S(=O)(=O)c2ccc(Br)s2)CC1
    -3%, -1.8, -20, 6, 5
CC1=C(C(=O)Nc2cccc(C(=O)NCc3ccccc3C)c2)SCCO1
    ., 1.4, ., ., 6
CCc1cc2c(=O)c(-c3ccc4c(c3)OCCO4)coc2c(CN2CCCCC2C)c1O (stereo not drawn)
    -6%, -2.1, ., 5, 2
Cc1n[nH]c(=O)c2c(NC(=O)COC(=O)c3cccc(OC(F)F)c3)oc(C)c12
    ., 8.0, ., ., 1
O=C(CCCNC(=O)c1ccc(Cl)cc1)Nc1ccccc1F
    ., -0.7, ., ., 0
Cc1c(C(=O)c2cccc([N+](=O)[O-])c2)c2ccccn2c1CCC#N
    3%, 0.7, -28, 14, -2
CC1(C(=O)Nc2c(F)c(F)c(F)c(F)c2F)CC1(Br)Br (stereo not drawn)
    -2%, -5.2, ., ., -3
COc1ccc(C(O)(CCN2CCCCC2)C2CCCCC2)cc1 (stereo not drawn)
    ., 2.8, ., ., 5
Cc1nnc(NC(=O)c2ccc(-c3ccc(Cl)cc3)o2)s1
    ., -0.3, ., ., -5
COC(=O)c1ccc(N2CCN(S(=O)(=O)c3ccccc3)CC2)c([N+](=O)[O-])c1
    -4%, -1.9, -37, -3, -2
Cc1cc(C)n(-c2nc(SCCN(C)C)c3c4c(sc3n2)CCCC4)n1
    4.2µM*, 7.0, -7, -31, 98
Cc1ccc(NC(=O)CSc2nc(=O)n(CCCN(C)C)c3c2CCC3)c(C)c1
    ., 0.0, ., ., -15
CCCc1cc(=O)n2[nH]c(CCc3ccccc3)nc2n1
    -10%, -1.4, -32, -4, 1
O=C(Nc1ccc(Br)cn1)c1cccc2c1-c1ccccc1C2=O
    0%, -0.8, ., -12, 3
CN(C)CC(O)COC(c1ccc(Cl)cc1)c1ccc(Cl)cc1 (stereo not drawn)
    7%, 3.1, ., -31, -6
Brc1ccc(-c2csc(N/N=C/c3ccco3)n2)cc1
    -2%, 4.6, ., 24, 75
CCOc1cc(/C=N/Nc2ncc(C)c(=O)[nH]2)ccc1O
    ., -4.1, ., ., -1
CCOC(=O)C1C(=O)C=C(c2cccs2)CC1c1ccccc1 (stereo not drawn)
    20%, 1.2, -13, 18, -1
COc1ccccc1/C=C/CN1CCN(c2ccccc2)CC1
    0%, 0.9, -38, 16, 1
O=c1[nH]c(=O)n(CCO)c2nnn(Cc3ccccc3)c12
    -4%, ., -47, 1, -3
Cc1ccc(SCC(=O)Nc2cccc(NC(=O)c3ccco3)c2)cc1
    -2%, 3.9, -29, -5, 6
Cc1ccc(S(=O)(=O)c2ccc([N+](=O)[O-])cn2)cc1
    ., 29, ., ., 100
Cc1ccc2[nH]c(=O)c3cc(C(=O)N(CCCOC(C)C)Cc4ccco4)sc3c2c1
    12%, -0.2, -58, -13, -11
CCN(CC)C(=O)C1CCN(Cc2ccc(Br)cc2)CC1
    -5%, -2.8, -36, 8, 5
Cc1cc(OCc2nc(-c3cccs3)no2)cc(C)c1Cl
    16%, 1.0, -46, 11, 7
O=C(C1=C(O)C(=O)N(Cc2ccccc2)C1c1ccco1)c1ccco1 (stereo not drawn)
    -5%, 2.5, -19, 9, -10
Nc1cc([N+](=O)[O-])ccc1Nc1ccccc1
    7%, -1.3, ., -12, 0
COc1ccc(N2CC(C(=O)N3CCN(Cc4ccc5c(c4)OCO5)CC3)CC2=O)cc1 (stereo not drawn)
    ., 3.5, ., ., 0
Cn1c(C(=O)N2CCC(C(=O)N3CCC4(CC3)OCCO4)CC2)cc2sccc21
    -5%, 0.0, -28, 8, 6
COc1cc(OC)c(C2C(C(=O)Nc3ccccc3)=C(C)Nc3ncnn32)cc1OC (stereo not drawn)
    -16%, -2.2, -34, -2, -4
CCOc1ccc2[nH]c(C)c(CN3CCCCC3)c(=O)c2c1
    ., -0.1, -34, 6, -3
O=C(COc1ccccc1)N=C1SC2CS(=O)(=O)CC2N1c1ccccc1 (stereo not drawn)
    ., -2.8, ., ., 3

# Not all compounds are listed; count on the stated rates, not on these rows.
